HSD17B inhib = HSD17B dehydrogenase inhibition. recombinant HSD17B10, NADH fluorescence kinetic; many of its hits are not listed in these tables. Potency, µM (titrated, usually from 57.1 µM), for inactives: at the highest dose activity change, negative = inhibition, actives largely listed as inhibitors. 7.6% of 75,000 active; active = well fitted inhibition curve with a large enough effect; inconclusive = small, poorly fitted or top-dose-only effect; inactive = no such curve, though single readings can be large or run the other way;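 note: the protocol describes HADH2 (HSD17B10) and not the HSD17B4 of the title; nearly all actives have a fitted effect of over 70% in size; most hits overshoot -100% by far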
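Enzyme plus compound, 15 min room temperature; substrate mix added (NAD+ 1 mM, beta-hydroxybutyryl-CoA 90 uM final); plates read kinetically for NADH fluorescence. HADH2 was His-tagged, E. coli-derived, 20 nM.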
* = called active by the depositor; ? = inconclusive; [ ] = dose if it differs, or a comment. % is set by controls: 0 for no effect and ±100 for the full control effect; potency is the fitted concentration of half-maximal effect.

| Molecule | HSD17B inhib |
| --- | --- |
| O=C(NC(C(=O)O)c1ccccc1)c1ccc(S(=O)(=O)N2CCOCC2)cc1 (stereo unspecified) | -5% |
| COC(=O)c1cc(NCc2c(F)cccc2Cl)ccc1N1CCOCC1 | ? |
| CC(=O)N1c2c(cc(Br)cc2S(=O)(=O)N2CCN(C(=O)c3ccco3)CC2)CC1C (stereo unspecified) | -1% |
| CC1=CC(=O)C2=C(C)CC[C@@H]3[C@@H](OC(=O)[C@H]3C)[C@H]12 | -3%[25.6 µM] |
| CCN(CC)c1ccc(NC(=O)Nc2cccc(C(C)=O)c2)cc1 | -14% |
| O=C(NC1CCCCC1)c1ccc(N2CCCC2=O)cc1 | 1% |
| CCOc1ccc(S(=O)(=O)NCCC(=O)OCN2C(=O)c3ccccc3C2=O)cc1 | -3% |
| Cc1cccc2sc(NC(=O)C3CCCN(S(=O)(=O)c4cccc5nonc45)C3)nc12 (stereo unspecified) | -2% |
| CCc1nnc(NC(=O)CSc2nnc(-c3cc4ccccc4cc3O)n2CCOC)s1 | -10% |
| CCOC(=O)C1CCCN(S(=O)(=O)c2cccs2)C1 (stereo unspecified) | 9% |
| Cc1nnc(NC(=O)Oc2ccccc2)s1 | 4% |
| COc1cccc(NC(=O)C2CC(=O)OC23CCOC(C)(C)C3)c1 (stereo unspecified) | 2% |
| CCOc1ccc(-n2c(Cc3cc(=O)[nH]c(=O)[nH]3)nnc2SCc2cccnc2)cc1 | 2% |
| COc1ccc(OC)c2[nH]c(=O)c(CCNC(=O)c3cc4ccccc4o3)cc12 | -15% |
| CCN(CCCNC(=O)CN(C)S(=O)(=O)c1cccc2nsnc12)c1ccccc1 | 2% |
| COC(=O)C1=C(C)C(c2ccc(OC)cc2OC)NC(=O)N1 (stereo unspecified) | 5% |
| O=C(CCCc1ccccc1)NC1CCSC1=O (stereo unspecified) | 14% |
| Cc1cnc(C(=O)OCC(=O)NC2CCCC(C)C2C)cn1 (stereo unspecified) | -1% |
| N#CCCN1CCN(S(=O)(=O)c2ccc(C#N)cc2)CC1 | 8% |
| COc1cccc(-n2c(SCC(N)=O)nnc2-c2ccncc2)c1 | -6% |
| Clc1ccc(Cl)c(-c2nn3c(Cn4cnc5ccccc54)nnc3s2)c1 | 4% |
| CCc1cc2c(NCCN3CCCCC3)ncnc2s1 | 9% |
| Cc1ccc(-c2nnc3c4ccccc4c(C)nn23)cc1NC(=O)CN1CCOCC1 | 0% |
| Nc1nonc1-n1nncc1-c1ccccc1 | 4% |
| COC(=O)NC(c1cccs1)C(C(C)=O)C(=O)OC (stereo unspecified) | 1%[11.4 µM] |
| CCOc1ccc(N2C(=O)CSC2c2ccncc2)cc1 (stereo unspecified) | 11% |
| O=C(CCN1CCc2ccccc2C1)Nc1ccc(F)cc1 | 12% |
| COc1ccc(-c2noc(CCC(=O)N3CCN(Cc4ccccc4)CC3)n2)cc1 | 3% |
| COCCCNC(=O)CC(NS(=O)(=O)c1ccc(Cl)cc1)c1ccco1 (stereo unspecified) | 4% |
| Cn1c(=N)n(CC(O)c2cccc3ccccc23)c2ccccc21 (stereo unspecified) | 5% |
| CC(=O)OCc1cc2cc(C)ccc2[nH]c1=O | ? |
| CCc1cc(=O)oc2cc(OC(C)C(=O)O)c(Cl)cc12 (stereo unspecified) | ? |
| CCSc1oc(-c2ccco2)nc1S(=O)(=O)c1ccccc1 | -27% |
| O=C(CN(Cc1ccccc1F)C(=O)c1ccco1)NCc1ccc(F)cc1 | -2% |
| O=C(CN1CCOCC1)N1CCN(S(=O)(=O)c2ccccc2)C1c1ccccc1 (stereo unspecified) | -6% |
| CCOc1ccccc1N(CC(=O)N1CCOCC1)S(=O)(=O)c1ccc(SC)cc1 | -19% |

7 structures already listed, arranged by SMILES length, lowest first:
| Molecule | HSD17B inhib |
| --- | --- |
| CC(=O)OCc1cc2cc(C)ccc2[nH]c1=O | ? |
| CCOc1ccc(N2C(=O)CSC2c2ccncc2)cc1 (stereo unspecified) | 11% |
| O=C(CCN1CCc2ccccc2C1)Nc1ccc(F)cc1 | 12% |
| COC(=O)NC(c1cccs1)C(C(C)=O)C(=O)OC (stereo unspecified) | 1%[11.4 µM] |
| CCSc1oc(-c2ccco2)nc1S(=O)(=O)c1ccccc1 | -27% |
| COCCCNC(=O)CC(NS(=O)(=O)c1ccc(Cl)cc1)c1ccco1 (stereo unspecified) | 4% |
| COc1ccc(-c2noc(CCC(=O)N3CCN(Cc4ccccc4)CC3)n2)cc1 | 3% |

(further entries)
| Molecule | HSD17B inhib |
| --- | --- |
| C=CCn1c(CC#N)nnc1N1CCOCC1 | 2% |
| C=CCSc1nc2c(c(=O)n(C)c(=O)n2C)n1CC | 2% |
| CCS(=O)(=O)N1CCC(C(=O)NCCc2ccc(OC)c(OC)c2)CC1 | -1% |
| OC(CCN1CCOCC1)(c1ccc(Cl)cc1)C1CCCCC1 (stereo unspecified) | -16% |
| O=C1CCCC2=C1C(c1cccs1)n1nc(SCc3ccccc3F)nc1N2 (stereo unspecified) | 25µM* |
| CCn1nnnc1SCC(=O)N(C1CCCCC1)C1CCCCC1 | 2% |
| CCCc1nc2n[nH]c(N)c2c2c1CCC2 | 5% |
| COc1ccc(CNc2nc(NCc3ccc(OC)cc3)n(S(C)(=O)=O)n2)cc1 | -10% |
| COCC(=O)Nc1c(C(=O)Nc2ccccc2OC)oc2ccccc12 | 32µM* |
| CC(=O)NCCc1nc2ccccc2[nH]1 | 5% |
| CCCCCC(=O)Nc1ccc2oc(-c3ccncc3)nc2c1 | 32µM* |
| O=C(Cn1cnc2c(nnn2Cc2ccccc2F)c1=O)N1CCN(c2ccccc2)CC1 | 9% |
| CCC(=O)Nc1ccc(NC(=O)c2ccco2)cc1 | 15% |
| C=CCn1c(=O)c2ccccc2n2c(SCC(=O)/C(C#N)=C(\C)N)nnc12 | -9% |
| Cn1c(CCNC(=O)c2ccco2)nc2cc(NC(=O)C3CCCCC3)ccc21 | 2% |
| CC1(C)CC(=O)C(C=Nc2ccccc2)=C(O)C1 | -12% |
| CC1CCc2c(nc3ncnn3c2N2CC(C)OC(C)C2)C1 (stereo unspecified) | 0% |
| CC1CCC(C(=O)O)NC1c1cccc(N2CCOCC2)c1 (stereo unspecified) | 2%[11.4 µM] |
| O=C(CC1(C(F)(F)F)OCCO1)Nc1ccc2c(c1)OCO2 | 4% |
| CCOc1ccccc1CNc1ccc(N2CCOCC2)c(C(=O)O)c1 | 10% |
| CCSc1nnc(Nc2ccccc2)s1 | -3% |
| Oc1ccccc1C1=Nc2ccccc2N=C(c2ccco2)C1 | -6% |
| COC(=O)c1[nH]c2ccccc2c1NC(=O)CN1CCN(c2cccc(OC)c2)C(C)C1 (stereo unspecified) | ? |
| CC(=O)N1CCN(c2ccccc2NC(=O)COc2ccc(Cl)cc2Cl)CC1 | 9% |
| Cn1c(=O)c(C(=O)Nc2cnccn2)c(O)c2ccccc21 | 11% |
| CCn1c(SCC(=O)Nc2cc(C)ccc2C)nc2c(c1=O)SC(C)C2 (stereo unspecified) | 7% |
| CCSc1nc(C)cc(Oc2ccc(=O)n(C)n2)n1 | 3% |
| Cc1cc2c(cc(C(=O)OC(C(=O)NCc3ccco3)C(C)C)n2C)o1 (stereo unspecified) | -3% |
| CCN(CC)C(=O)CSc1nc2cccnc2n1-c1ccccc1OC | 5% |
| O=C(NC1=NCCS1)C1Cc2ccccc2CN1C(=O)c1ccccc1 (stereo unspecified) | -7% |
| COc1cc(NC(=O)Nc2ccccc2OC)c(OC)cc1NC(=O)CN1CCCCC1 | 5% |
| CCc1nc(Sc2nc(C)cc(C)n2)c2oc3ccccc3c2n1 | -9% |
| COC(=O)c1nc2n(n1)C(c1cccc(Cl)c1)C1=C(CCCC1=O)N2 (stereo unspecified) | 37%[activator] |
| COc1cccc(Cn2c(=O)c(-c3ccc(F)cc3)nc3cnc(OC)nc32)c1 | 10% |
| Cc1nc(N2CCCC2)c2ccsc2n1 | 11% |
| Cc1cc2c(cc1C)C(=O)NC(C)(C)C2 | 7% |
| Cc1nnc(SCC(=O)NCc2ccc3c(c2)OCO3)[nH]c1=O | -5% |
| N#Cc1c(NC(=O)CSc2ncn(-c3ccccc3)n2)sc2c1CCCC2 | -4% |
| Cc1c(NC(=O)c2cc(-n3cnnc3)ccc2Cl)cccc1-c1nc2ccccc2o1 | -13% |
| CCc1cc(Cl)c(OC)c(C(=O)NC[C@@H]2CCCN2CC)c1O | -3%[25.6 µM] |
| O=C(COc1ccc2ccccc2c1Br)Nn1cnnc1 | 8% |
| Cc1cccc(OCCn2c(CCCO)nc3ccccc32)c1 | -1% |
| CC(=O)OCC(OC(C)=O)C(OC(C)=O)C(OC(C)=O)C(=O)Nc1ccc(C)cc1 (stereo unspecified) | 10% |
| Cc1cc(NC(=O)c2ccc(NC(=O)c3cccs3)cc2)no1 | 1% |
| NCCc1nnc(SCc2ccccc2F)o1 | -4% |
| O=C(CNC(=O)c1ccco1)OCc1cccc(Cl)c1 | -15% |
| C=CCc1ccc(OCCCCCN2CCOCC2)c(OC)c1 | -8% |
| COC(=O)c1c(S(N)(=O)=O)c2ccccc2n1C | 32µM* |
| O=C(NCc1cccnc1)C1CCN(C(=O)c2ccc(Cl)cc2Cl)CC1 | 1% |
| Cc1ccccc1N1CCN(C(=O)C2CCCCC2)CC1 | -4% |
| Cc1cc(=O)oc2c1ccc1oc(/C(=N/O)c3ccccc3)c(C)c12 | -24% |
| CS(=O)(=O)Nc1cccc(-c2nc(N3CCNCC3)c3ccccc3n2)c1 | -14% |
| CNC(=O)[C@H](C)[C@H]1C[C@]1(C)[C@H](NC(=O)OCc1ccccc1)c1ccccc1 | -7% |
| CCOC(=O)N1CCN(C(=O)CSCC(=O)Nc2nc(-c3ccccc3)cs2)CC1 | -12% |
| CN(C)c1ccc(C(=O)OCC(=O)c2cccs2)cc1 | 2% |
| CSCC[C@H](NC(=O)CCn1nnc2ccccc2c1=O)C(=O)O | 6% |
| N#Cc1ccccc1Cn1c(=O)n(-c2ccc(CC(=O)NCc3ccco3)cc2)c(=O)c2sccc21 | 0% |
| CC1CC(C)CN(C(=O)CSc2nnc(-c3ccc(Cl)s3)o2)C1 (stereo unspecified) | -18% |
| COc1cc(C(=O)Oc2ccccc2N)cc(OC)c1OC | -6% |
| CCCCSc1nc2c(c(=O)n1CC)SC(C)C2 (stereo unspecified) | -19% |

The list goes on.
| Molecule | HSD17B inhib |
| --- | --- |
| O=C(NCN1C(=O)C2C3C=CC(C3)C2C1=O)Nc1ccccn1 (stereo unspecified) | -6% |
| COc1ccc(NC(=O)Cn2nnc(-c3ccccc3NC(=O)c3ccco3)n2)cc1 | 401%[activator] |
| CN(c1ccccc1C(=O)NCC1CCCO1)S(C)(=O)=O (stereo unspecified) | -5% |
| CCOC(=O)c1c(NC(=O)C2CCN(S(=O)(=O)c3cccs3)CC2)sc(C)c1C | 6% |
| ClC/C=C/CCl | -5% |
| [O-][N+]1(CC[N+]2([O-])CCCCC2)CCCCC1 | 2%[11.4 µM] |
| COCCNC(=O)Nc1ccc2c(c1)N(C)C(=O)CS2 | -24% |
| Cc1cc(O)c(C=O)c2c1C(=O)Oc1c(COC(=O)/C=C/C(=O)O)c(O)c(C(=O)O)c(C)c1O2 | -28% |
| CC1(C)CCCC2=C1CC1C(=O)N(O)C(=O)C1C2 (stereo unspecified) | 1% |
| CCOC(=O)N1CCN(S(=O)(=O)c2ccc3c(c2)oc(=O)n3C)CC1 | 5% |
| CCOC(=O)NC(Nc1ccc(C)cn1)(C(F)(F)F)C(F)(F)F | 2% |
| CCc1ccccc1NC(=O)C(C#N)Cc1cccnc1 (stereo unspecified) | 8% |
| O=C(CCCOc1ccccc1)Nc1cccc(C(=O)O)c1 | -11% |
| COc1c(O)cccc1-c1nnn(CCC(=O)OCC(=O)c2ccccc2)n1 | 2% |
| O=C(CSc1nnc(-c2ccccc2F)n1C1CCCCC1)N1CCCC1 | 8% |
| Cc1onc(-c2ccccc2Cl)c1C(=O)NCC(=O)O | 14% |
| COc1ccc2c(=O)c3c(=O)n(Cc4ccco4)c(-c4ccccc4)nc3oc2c1 | -2% |
| Cc1c(NC(=O)C(C)OC(=O)COc2cccc3c2OC(C)(C)C3)c(=O)n(-c2ccccc2)n1C (stereo unspecified) | 4% |
| C=CCNC(=O)NS(=O)(=O)c1ccc(C)cc1 | 13% |
| O=c1c2ccccc2nc2n1CC/C2=C/N1CCN(c2cccc(C(F)(F)F)c2)CC1 | ? |
| C/C(=N/NC1=NCCN1)c1cn(C2=NCCN2)nc1C | 0%[11.4 µM] |
| COc1ccc(C2C(=O)N(C3CCCCC3)CC(=O)N2Cc2ccco2)cc1 (stereo unspecified) | 7% |
| Cc1ccc(C(C)C)c(OCC(O)CN2CCOCC2)c1 (stereo unspecified) | 1% |
| Cc1ccc(-c2nc3cnccn3c2Nc2ccc3c(c2)OCO3)o1 | 2% |
| Cc1cc(C)n(S(=O)(=O)c2cc(C(=O)O)c(Cl)cc2Cl)n1 | 11% |
| O=C1C[C@@H](O)[C@@H](O)[C@@H]2[C@H]3C(=O)N(c4ccc(F)cc4F)C(=O)[C@@H]3CC[C@@H]12 | -1%[11.4 µM] |
| Cc1ccc(Nc2cc(-n3nc(C)cc3C)ncn2)c(C)c1 | -17% |
| CC(C)NC(=O)c1cc(-c2ccc(Br)cc2)on1 | -3% |
| O=C(Nc1ccc(C(F)(F)F)cc1Cl)c1ccc(Cn2cc(Br)cn2)o1 | -17% |
| O=C(Nc1ccc(Cl)cn1)C1CCCN1S(=O)(=O)c1ccc(Cl)cc1 (stereo unspecified) | -1% |
| CC(=O)Nc1ccc(S(=O)(=O)NCCc2ccccc2)cc1 | 0% |
| Cc1cc(C)c2nc(-c3ccccn3)cc(C(=O)Nc3cc(C)on3)c2c1 | 25µM* |
| O=C1NC(=O)c2c(NC(=O)C3CCCO3)cccc21 (stereo unspecified) | 32µM* |
| CC(=O)N1CN(CCCn2ccnc2)Cc2c1sc1c2CCCC1 | 9% |
| Cc1cc(N2CCN(C(=O)OC(C)(C)C)CC2)n2ncnc2n1 | -5% |

This is a subset (hit frequency here may not be typical).
